Screens from PubChem BioAssay.
MLL AF4-AF9 inh: inhibitors of AF4 peptide binding to AF9, primary screen, biochemical, AlphaScreen, biotin-AF4 peptide, FLAG-AF9, single point | inhibition, % at 10 µM | Protein AF-9 (Homo sapiens), P42568 | hit rate 0.47% among 350,000;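 active = every replicate reaching a set inhibition limit, whatever the replicate mean, cut at about 25% in these data; inconclusive = mean inhibition reaches that limit but some replicates miss it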;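 also: 0% = plate neutral control median and 100% = total signal loss; the record names both 10 and 1 µM as test concentration; the first replicate is given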
Target sequence (P42568 whole entry, looked up): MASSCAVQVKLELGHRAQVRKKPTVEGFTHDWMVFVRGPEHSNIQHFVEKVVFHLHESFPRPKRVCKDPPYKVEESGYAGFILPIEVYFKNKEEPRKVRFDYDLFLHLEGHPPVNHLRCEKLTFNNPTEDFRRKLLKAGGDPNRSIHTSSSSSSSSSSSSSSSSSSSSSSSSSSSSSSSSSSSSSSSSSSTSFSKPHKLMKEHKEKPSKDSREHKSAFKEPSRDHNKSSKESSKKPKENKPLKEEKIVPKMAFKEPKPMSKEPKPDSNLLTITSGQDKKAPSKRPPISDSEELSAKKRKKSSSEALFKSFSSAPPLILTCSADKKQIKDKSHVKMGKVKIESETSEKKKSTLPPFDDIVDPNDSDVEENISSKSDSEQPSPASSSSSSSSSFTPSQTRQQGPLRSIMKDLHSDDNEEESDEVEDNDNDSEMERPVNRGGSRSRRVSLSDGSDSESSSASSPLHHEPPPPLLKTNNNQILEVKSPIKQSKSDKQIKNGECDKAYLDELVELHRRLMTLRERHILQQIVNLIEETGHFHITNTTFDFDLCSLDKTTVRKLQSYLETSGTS
T cruzi inh: inhibitors of intracellular T. cruzi growth, primary screen, luminescence, NIH3T3 host cells. T. cruzi beta-gal in NIH3T3, 90 h. inhibition, % (no concentration beside the values). hit rate 1.4% among 300,000;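 active = mean inhibition across valid replicates above about 55%, limit read from the data; inconclusive = mean below that limit but half or more replicates reach it; inactive = mean below it, under half of replicates reach it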;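 also: signal also drops with host cell toxicity which is not excluded here; 0% = plate median of DMSO wells and 100% = zero luminescence signal; higher percent means less beta-gal luminescence so fewer parasites; stock transfer was 50 nL into about 50 µL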
FGF22 binding: binders of human FGF22 protein, primary screen, FGF22 synaptogenesis inhibitor project, biophysical, thermal shift, single point | Fibroblast growth factor 22 (Homo sapiens), Q9HCT0 | recombinant FGF22 thermal shift, SYPRO orange fluorescence; percent of sucrose octasulfate shift, DMSO zero | AID 651658, 2012 | hit rate 1.5% among 340,000 | calls only at 9.99 µM;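 active = melting point raised past a set limit in the mean and every replicate; inconclusive = no clear call; three in four hits are not shown here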
Target sequence (Q9HCT0 whole entry, looked up): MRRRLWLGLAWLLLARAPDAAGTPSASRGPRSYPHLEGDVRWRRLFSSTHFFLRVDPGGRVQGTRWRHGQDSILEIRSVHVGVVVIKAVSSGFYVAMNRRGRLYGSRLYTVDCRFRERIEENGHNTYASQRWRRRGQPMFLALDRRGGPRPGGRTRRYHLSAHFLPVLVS
Bfl-1 A1 inh: caspase 3/7 activation in MEF A1-2A-BIM cells, primary screen, A1 inhibitor project, cell-based, luminescence, HTS | Caspase-Glo 3/7 luminescence, 3 h; percent of clofoctol response, vehicle zero | hit rate 0.066% among 330,000 | caspase activation, % (no concentration beside the values) | AID 2462, 2010;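 active = over half of replicate activation scores above 10%, or exactly half above 10 with the replicate mean above 10; inconclusive = replicate mean below 10 yet half the replicates above 10; inactive = over half of replicates below 10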;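 also: wells of about 30 µL received 50 nL stock; many hits fall short of the cut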
Ecoli rRNA inh: reduced GFP signal of wild-type E. coli, primary screen, bacterial rRNA inhibitor project, GFP/RFP fluorescence, OD600, single point; E. coli WT GFP vs humanized-ribosome RFP mutants, 24 h; hits give low values; DMSO median 0, no signal -100; AID 720706, 2013; GFP signal change (wild-type ribosome), % (test concentration not listed); hit rate 1.6% among 350,000;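 active = significant combined selectivity score with lowered wild-type GFP, culture density cut under 30%, mutant RFP and density less affected; inactive = any of these conditions unmet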; also: one replicate is shown; some compounds called inactive have numbers as strong as hits
Beta cell apopt: inhibitors of cytokine-induced beta cell apoptosis, primary screen, luminescence. INS-1E cytokine-induced death, ATP luminescence, 48 h; percent of positive-control rescue, neutral wells zero. protection from apoptosis, % (concentration not given with the values). hit rate 0.8% among 300,000;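 active = all replicates at 75% or more, or half of them and the mean; inconclusive = half reach 75% but not the mean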;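 also: 0% = cytokine-treated negative control wells and 100% = positive control rescue; higher means more ATP so stronger rescue from cytokine killing; wells of about 40 µL received 100 nL stock; the first replicate is given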
E coli growth: E. coli growth inhibition, primary screen, OD600 | Escherichia coli growth, 23 h; hits give low values | OD600 absorbance (no concentration beside the values) | hit rate 0.21% among 330,000 | AID 1053175, 2014;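 active = OD600 absorbance below the run mean of sample wells minus 3.6 SD, in any replicate, cut at about 0.56 in these data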;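 also: stock transfer was 300 nL into about 60 µL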
UCH37 inh: inhibitors of human UCH37 deubiquitinase, primary screen, biochemical, Ub-AMC cleavage, fluorescence | Ubiquitin carboxyl-terminal hydrolase isozyme L5 (Homo sapiens), Q9Y5K5 | hit rate 0.33% among 330,000 | AID 588478, 2011 | purified proteasome/UCH37 | inhibition, % (concentration not given with the values);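 active = mean of two replicates above 20%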;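 also: 0% = compound-free wells with enzyme and 100% = wells lacking proteasome; stock transfer was 100 nL into about 20 µL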
Target sequence (Q9Y5K5 whole entry, looked up): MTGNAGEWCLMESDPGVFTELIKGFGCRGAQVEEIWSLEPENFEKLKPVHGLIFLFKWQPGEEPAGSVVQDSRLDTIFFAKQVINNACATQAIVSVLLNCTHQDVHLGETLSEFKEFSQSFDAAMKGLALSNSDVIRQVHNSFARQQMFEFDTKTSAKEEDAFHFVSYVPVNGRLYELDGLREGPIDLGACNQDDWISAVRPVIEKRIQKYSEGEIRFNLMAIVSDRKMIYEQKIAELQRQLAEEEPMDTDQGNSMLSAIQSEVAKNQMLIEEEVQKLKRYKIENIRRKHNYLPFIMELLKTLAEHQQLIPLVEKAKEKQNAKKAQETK
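Assay system: Proteasome-bound UCH37. Buffer or medium: pH 7.4 Tris-HCl (50 mM) with ovalbumin, ATP-MgCl2, DTT. Incubation: 30 min preincubation with enzyme, 25 min cleavage at room temperature. Measured by: fluorescence, ex 355 nm, em 460 nm. Read-out basis: percent inhibition. Control set: wells without proteasome as full block, compound-free enzyme plus substrate as uninhibited.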
Ecoli rRNA inh OD600: second read-out of Ecoli rRNA inh, no call of its own (marks repeat the call); OD600 change, %; measured here: OD600 growth;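 optical density of the mix in the first replicate; 0 = DMSO median and -100 = no signal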
Ecoli rRNA inh RFP: also measured in Ecoli rRNA inh; calls as there; RFP signal change, %; measured here: RFP humanized mutant strains;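 first replicate; 0 = DMSO median and -100 = no signal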
The depositor's hits bear a star. A portion of the library, so the mix of outcomes need not match the whole.

Results for O=C(COC(=O)c1cncc(Br)c1)NC1CCCC1 ?
MLL AF4-AF9 inh: -1.9; T cruzi inh: -10; FGF22 binding: inactive; Bfl-1 A1 inh: 0.6; Ecoli rRNA inh: 6; Beta cell apopt: -4; E coli growth: 0.71; UCH37 inh: 5.1; Ecoli rRNA inh OD600: 3; Ecoli rRNA inh RFP: -1.5

What do the screens show for `CCOc1ccccc1C1c2[nH]c3ccccc3c2C[C@H]2C(=O)N(C3CCN(Cc4ccccc4)CC3)CC(=O)N12` (some centres undefined)?
MLL AF4-AF9 inh: 1.9; T cruzi inh: 62*; FGF22 binding: inactive; Bfl-1 A1 inh: 0.3; Ecoli rRNA inh: 2; Beta cell apopt: 7; E coli growth: 0.69; UCH37 inh: 2.8; Ecoli rRNA inh OD600: -12; Ecoli rRNA inh RFP: 15

What do the screens show for `Cc1ccc(C2C3CSCC=C3C(C#N)=C(N)C2(C#N)C#N)cc1` (centres undefined)?
T cruzi inh: -1; Bfl-1 A1 inh: -0.5; Beta cell apopt: -5; E coli growth: 0.65; UCH37 inh: 2.7

How did CC(NC(=O)COC(=O)c1cn(-c2ccccc2)nc1-c1cccs1)c1ccccc1 (centres undefined) do in these assays?
T cruzi inh: 13; Bfl-1 A1 inh: -0.1; Beta cell apopt: 2; E coli growth: 0.69; UCH37 inh: -2.2

How did C[C@@H]1COC(=O)[C@@H](Cc2ccc(F)cc2)CC/C=C\C[C@@H](CC(=O)NCCO)C(=O)N1 do in these assays?
MLL AF4-AF9 inh: 0.0; FGF22 binding: inactive; Bfl-1 A1 inh: -0.2; Ecoli rRNA inh: 3; Beta cell apopt: -2; UCH37 inh: 1.8; Ecoli rRNA inh OD600: 6; Ecoli rRNA inh RFP: 9.3

Results for CC(C)(C)c1ccc(Oc2cccc(C3CC(=O)C(C4NCCc5ccccc54)C(=O)C3n3cncn3)c2)cc1 (centres undefined) ?
T cruzi inh: 1; Bfl-1 A1 inh: 0.7; E coli growth: 0.71; UCH37 inh: 3.7

What do the screens show for `CCN(CC(=O)Nc1ccccc1OC)C(=O)CCOc1ccc(C(C)(C)C)cc1`?
MLL AF4-AF9 inh: -0.3; T cruzi inh: 11; Bfl-1 A1 inh: 0.6; Ecoli rRNA inh: -12; Beta cell apopt: -1; E coli growth: 0.64; UCH37 inh: 5.4; Ecoli rRNA inh OD600: -18; Ecoli rRNA inh RFP: 1.0

How did Cc1ccc(S(=O)(=O)NCc2ccccc2)s1 do in these assays?
MLL AF4-AF9 inh: -1.9; T cruzi inh: -13; FGF22 binding: inactive; Bfl-1 A1 inh: -0.3; Ecoli rRNA inh: 6; Beta cell apopt: 2; E coli growth: 0.73; UCH37 inh: 3.3; Ecoli rRNA inh OD600: 8; Ecoli rRNA inh RFP: 0.4

How did CC(C)CC(=O)NC(=S)Nc1ccccc1C(F)(F)F do in these assays?
MLL AF4-AF9 inh: 4.7; T cruzi inh: -5; FGF22 binding: inactive; Bfl-1 A1 inh: 0.5; Ecoli rRNA inh: 17; Beta cell apopt: -4; E coli growth: 0.64; UCH37 inh: 3.7; Ecoli rRNA inh OD600: 27; Ecoli rRNA inh RFP: 9.6

What do the screens show for `Cc1cc(NC(=O)CCC(=O)N(Cc2cccs2)C(C(=O)NC2CCCC2)c2ccncc2)no1` (centres undefined)?
T cruzi inh: -4; Bfl-1 A1 inh: 0.1; Beta cell apopt: 1; E coli growth: 0.7; UCH37 inh: 3.4

What do the screens show for `COc1cc(Cl)c(C)cc1N1C(=O)CN(Cc2ccccc2)C1=S`?
MLL AF4-AF9 inh: -4.3; T cruzi inh: -2; FGF22 binding: inactive; Bfl-1 A1 inh: 0.4; Ecoli rRNA inh: -5; Beta cell apopt: -2; E coli growth: 0.65; UCH37 inh: 6.1; Ecoli rRNA inh OD600: -13; Ecoli rRNA inh RFP: 1.8

Results for CCOc1ccc(C2CC(c3cccc(OC)c3OC)n3nnnc3N2)cc1Cl (centres undefined) ?
T cruzi inh: 1; Bfl-1 A1 inh: -0.2; Beta cell apopt: 2; E coli growth: 0.69; UCH37 inh: -1.3

How did O=C(COC(=O)COc1ccc(Cl)cc1Br)NCc1cccs1 do in these assays?
MLL AF4-AF9 inh: -1.7; T cruzi inh: -21; FGF22 binding: inactive; Bfl-1 A1 inh: 0.2; Ecoli rRNA inh: -18; Beta cell apopt: -6; E coli growth: 0.68; UCH37 inh: 1.7; Ecoli rRNA inh OD600: -7; Ecoli rRNA inh RFP: 0.4

What do the screens show for `CCn1c(SCC(=O)N2c3ccccc3Sc3ccccc32)nnc1-c1ccco1`?
T cruzi inh: 10; Bfl-1 A1 inh: 0.2; Ecoli rRNA inh: -40; Beta cell apopt: -1; E coli growth: 0.6; UCH37 inh: 0.5; Ecoli rRNA inh OD600: -50; Ecoli rRNA inh RFP: -8.8

How did CC(C)Cn1nc(C(=O)N2CCc3ccccc32)c2ccccc2c1=O do in these assays?
MLL AF4-AF9 inh: 3.2; Ecoli rRNA inh: 2; E coli growth: 0.69; UCH37 inh: 0.6; Ecoli rRNA inh OD600: 0; Ecoli rRNA inh RFP: -0.8

Results for COc1ccc(NC(=O)NC2(C(=O)N3CCCC3)CCCCC2)cc1 ?
MLL AF4-AF9 inh: -2.0; T cruzi inh: -14; FGF22 binding: inactive; Bfl-1 A1 inh: 0.7; Ecoli rRNA inh: 17; Beta cell apopt: -3; E coli growth: 0.72; UCH37 inh: 1.0; Ecoli rRNA inh OD600: 6; Ecoli rRNA inh RFP: -0.6

Results for Cc1ccc(S(=O)(=O)N2CCOCC2)cc1C(=O)NC(=S)N1CC(C)CC(C)C1 (centres undefined) ?
MLL AF4-AF9 inh: -10; T cruzi inh: 4; Ecoli rRNA inh: 8; E coli growth: 0.71; UCH37 inh: -0.1; Ecoli rRNA inh OD600: 13; Ecoli rRNA inh RFP: 10

Results for CC(C)C1Cc2c(sc3ncnc(NN)c23)CO1 (centres undefined) ?
MLL AF4-AF9 inh: -3.2; T cruzi inh: 11; FGF22 binding: inactive; Bfl-1 A1 inh: 0.8; Ecoli rRNA inh: 10; Beta cell apopt: -1; E coli growth: 0.7; UCH37 inh: 2.6; Ecoli rRNA inh OD600: 18; Ecoli rRNA inh RFP: 16

How did C[C@@H]1NC(=O)[C@H](CCCN=C(N)N)NC(=O)c2cc([N+](=O)[O-])cc(I)c2NCCC[C@@H](C(N)=O)NC1=O do in these assays?
MLL AF4-AF9 inh: -8.0; T cruzi inh: 0; FGF22 binding: inactive; Bfl-1 A1 inh: -1.1; Ecoli rRNA inh: 6; Beta cell apopt: 1; UCH37 inh: 1.1; Ecoli rRNA inh OD600: 16; Ecoli rRNA inh RFP: 2.6

Results for COc1cc2c(cc1OC)C(NC(=O)c1ccc(C)cc1)CC2=O (centres undefined) ?
MLL AF4-AF9 inh: -0.8; T cruzi inh: -3; FGF22 binding: inactive; Bfl-1 A1 inh: 1.6; Ecoli rRNA inh: 4; Beta cell apopt: -4; E coli growth: 0.69; UCH37 inh: 0.6; Ecoli rRNA inh OD600: -2; Ecoli rRNA inh RFP: 0.9

Results for Cc1cc(S(=O)(=O)NC2CCN(Cc3ccccc3)CC2)c(C)cc1Cl ?
MLL AF4-AF9 inh: 0.6; T cruzi inh: 5; FGF22 binding: inactive; Bfl-1 A1 inh: inconclusive; Ecoli rRNA inh: -38; Beta cell apopt: 6; E coli growth: 0.61; UCH37 inh: 2.8; Ecoli rRNA inh OD600: -38; Ecoli rRNA inh RFP: -12

What do the screens show for `O=S(=O)(N/N=C\c1cccc(F)c1)c1ccccc1`?
MLL AF4-AF9 inh: -0.8; T cruzi inh: -29; FGF22 binding: inactive; Bfl-1 A1 inh: 0.1; Ecoli rRNA inh: 17; Beta cell apopt: -5; Ecoli rRNA inh OD600: 7; Ecoli rRNA inh RFP: -1.1

How did O=C(COc1ccccc1)NCCSCc1ccc(Cl)cc1 do in these assays?
T cruzi inh: 8; Bfl-1 A1 inh: 0.6; E coli growth: 0.73; UCH37 inh: 2.5

What do the screens show for `COc1cccc(C(=O)O/N=C(\N)c2ccccn2)c1`?
MLL AF4-AF9 inh: -7.9; T cruzi inh: -6; FGF22 binding: inactive; Bfl-1 A1 inh: -9.1; Ecoli rRNA inh: 11; Beta cell apopt: 8; E coli growth: 0.71; UCH37 inh: 4.5; Ecoli rRNA inh OD600: 1; Ecoli rRNA inh RFP: -0.7

Results for CCOC(=O)N1CCN(C(=O)CNC(=O)c2nn(-c3ccc(OC)cc3OC)c(=O)c3ccccc23)CC1 ?
MLL AF4-AF9 inh: -4.4; T cruzi inh: 14; FGF22 binding: inactive; Bfl-1 A1 inh: 0.3; Ecoli rRNA inh: 1; Beta cell apopt: -3; E coli growth: 0.66; UCH37 inh: 1.2; Ecoli rRNA inh OD600: 3; Ecoli rRNA inh RFP: -2.1

Results for CCN1C(=C(C#N)C#N)C=Cc2cc(C)ccc21 ?
MLL AF4-AF9 inh: 1.4; T cruzi inh: 11; FGF22 binding: inactive; Bfl-1 A1 inh: 0.0; Ecoli rRNA inh: 34; Beta cell apopt: 0; E coli growth: 0.69; UCH37 inh: -64; Ecoli rRNA inh OD600: 14; Ecoli rRNA inh RFP: 3.5

What do the screens show for `CC1(C)C=Cc2c(c3ccccc3[nH]c2=O)O1`?
T cruzi inh: 18; Bfl-1 A1 inh: 0.6; Beta cell apopt: -1; E coli growth: 0.7; UCH37 inh: -4.5

How did CCC1CCC2(CC1)NC(=O)N(CC(=O)Nc1ccc(OC)c(Cl)c1)C2=O (centres undefined) do in these assays?
MLL AF4-AF9 inh: -2.6; FGF22 binding: inactive; Bfl-1 A1 inh: 0.9; Ecoli rRNA inh: 3; Beta cell apopt: -2; E coli growth: 0.67; UCH37 inh: 3.1; Ecoli rRNA inh OD600: 9; Ecoli rRNA inh RFP: 0.1

How did CC(=O)N1CCN(C(=O)c2ccc(Cl)c(S(=O)(=O)N3CCc4ccccc43)c2)CC1 do in these assays?
MLL AF4-AF9 inh: -1.9; FGF22 binding: inactive; Bfl-1 A1 inh: 0.2; Ecoli rRNA inh: -9; Beta cell apopt: -4; E coli growth: 0.66; UCH37 inh: 2.4; Ecoli rRNA inh OD600: -11; Ecoli rRNA inh RFP: -2.1

What do the screens show for `Cc1cc(C(=O)NNC(=O)/C=C/c2ccccc2Cl)c(C)o1`?
MLL AF4-AF9 inh: -2.4; T cruzi inh: -6; FGF22 binding: inactive; Bfl-1 A1 inh: -0.1; Ecoli rRNA inh: -8; Beta cell apopt: 0; E coli growth: 0.72; UCH37 inh: 1.0; Ecoli rRNA inh OD600: -8; Ecoli rRNA inh RFP: -1.8
